# Bioassay records deposited in PubChem by National Center for Advancing Translational Sciences (NCATS).
# D2 PAM: human D2 receptor positive allosteric modulation | DiscoveRx D2 beta-arrestin cells, luminescence, 90 min; 100% = 57 uM dopamine signal | potentiation, % (concentration not given with the values) | actives 0.23% (n = 360,000); active = potentiation of 50% or more; inconclusive = 30% to 50%; inactive = 30% or less;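 note: compound concentration not given in the record; tested on top of an EC20 dose of dopamine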
#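 PathHunter beta-arrestin assay in DiscoveRx D2 cells. Compounds were added with an EC20 of dopamine (50 nM final) for 90 min at 37 deg C. Luminescence was read 1 h after detection reagent, with 57 uM dopamine as the EC100 control.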
# TRPV1 PAM: potentiators of human vanilloid receptor 1 (TRPV1); TRPV1-expressing cells, Fluo-8 calcium influx, capsaicin EC20 potentiation; host cell line not named in the record; control for the full effect not named in the record; potentiation, % at 8.33 µM; actives 0.02% (n = 320,000); AID 540277; active means potentiation above 80%; inconclusive means 30% to 80%; inactive means below 30%; note: 0% is about no effect
#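 Fluo-8 calcium influx in TRPV1-expressing cells, kinetic read (ex 480/em 520 nm). Compound added and read 3 min for agonist activity, followed by capsaicin at EC20 final and 2 min further read for enhancement.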
# D2 ag: activates the human D2 dopamine receptor; P14416; DiscoveRx PathHunter D2 beta-arrestin, luminescence, 90 min; 100% = 57 uM dopamine signal; activation, % (test concentration not listed); actives 0.084% (n = 360,000); in the data active = activation above about 40%; inconclusive = about 15% to 40%; inactive = below about 15%; note: compound concentration not given in the record; the text of the record calls up to 30% inactive
#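 DiscoveRx PathHunter D2 beta-arrestin cells (2,100/well) attached overnight, then compound-stimulated 90 min at 37 C in HBSS/10 mM HEPES/0.1% Tween-20 buffer; beta-galactosidase complementation read by luminescence after 1 h at ambient temperature. Dopamine 57 uM final (EC100) as control.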
# CtBP-E1A blk: blocks the CtBP interaction with E1A. AlphaScreen GST-E1A/His-CtBP binding, 1536-well; stronger effect = lower value; control for the full effect not named in the record. activity change, % (no concentration beside the values). actives 0.49% (n = 340,000). AID 651724; in the data active means activity change below about -65%; inconclusive means about -30% to -65%; inactive means above about -30%; note: % is set by controls: 0 for no effect and ±100 for the full control effect; compound concentration not given in the record
#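 AlphaScreen with 125 nM GST-E1A and 125 nM His-CtBP (5X stocks) in Tris pH 8.0, 300 mM NaCl, BSA, Tween 20, TCEP. Compounds preincubated 2 h at 37 deg C, then glutathione donor/nickel acceptor beads added for 1 h at 37 deg C in dark.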
# Sfp inh: blocks B. subtilis Sfp PPTase activity. Q9F4F7. Biochemical Sfp PPTase activity, qHTS. Potency, µM, inactives show max response, negative = inhibition, actives largely listed as inhibitors. actives 3.5% (n = 310,000); active = well fitted inhibition curve with a large enough effect; inconclusive = small, poorly fitted or top-dose-only effect, or another doubt; inactive = no such curve, though single readings can be large or run the other way;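 note: the enzyme is Sfp with the accession as filed and its product quenches rhodamine fluorescence; potency is the fitted concentration of half-maximal effect; 0% = enzyme reaction without inhibitor and -100% = no enzyme wells; top concentration of the series not given in the record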
#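 Step 1, compound plus 15 nM Sfp-PPTase, 15 min, room temperature. Step 2, add rhodamine-CoA (5 uM) and BHQ-2-YbbR (12.5 uM). Step 3, read 525/598 nm fluorescence at 0 and 30 min.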
# Six1-Eya2 blk: inhibitors of human Six1/Eya2 interaction. Q15475+O00167. AlphaScreen GST-Six1/His-Eya2 binding, biochemical; stronger effect = lower value; control for the full effect not named in the record. activity change, % (no concentration beside the values). actives 0.56% (n = 360,000). AID 651725; in the data active = activity change below about -65%; inconclusive = about -30% to -65%; inactive = above about -30%; note: % is set by controls: 0 for no effect and ±100 for the full control effect; compound concentration not given in the record
# Target sequence (O00167 whole entry, looked up): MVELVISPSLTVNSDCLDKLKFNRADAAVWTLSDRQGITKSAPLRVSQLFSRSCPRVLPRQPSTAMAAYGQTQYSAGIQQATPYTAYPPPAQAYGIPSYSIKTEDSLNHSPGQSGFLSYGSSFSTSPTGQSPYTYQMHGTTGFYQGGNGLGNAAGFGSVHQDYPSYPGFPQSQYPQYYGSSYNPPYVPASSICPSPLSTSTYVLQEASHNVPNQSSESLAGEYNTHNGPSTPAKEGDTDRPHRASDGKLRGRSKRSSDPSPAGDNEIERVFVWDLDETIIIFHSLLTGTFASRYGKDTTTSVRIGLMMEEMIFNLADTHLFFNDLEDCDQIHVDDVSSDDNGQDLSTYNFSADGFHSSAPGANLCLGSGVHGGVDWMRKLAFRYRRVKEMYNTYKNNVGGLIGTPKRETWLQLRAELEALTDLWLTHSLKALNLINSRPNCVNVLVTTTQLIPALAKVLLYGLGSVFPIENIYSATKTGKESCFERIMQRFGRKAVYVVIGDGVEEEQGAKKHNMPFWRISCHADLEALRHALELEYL
# Target sequence (Q15475 whole entry, looked up): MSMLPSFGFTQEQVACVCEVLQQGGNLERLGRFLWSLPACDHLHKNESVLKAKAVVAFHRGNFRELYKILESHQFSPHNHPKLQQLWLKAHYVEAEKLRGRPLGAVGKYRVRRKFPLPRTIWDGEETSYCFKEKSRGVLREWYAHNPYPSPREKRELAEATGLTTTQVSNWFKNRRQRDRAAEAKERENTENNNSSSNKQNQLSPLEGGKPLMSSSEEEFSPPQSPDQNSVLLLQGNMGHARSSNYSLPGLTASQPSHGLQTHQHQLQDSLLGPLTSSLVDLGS
#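 GST-Six1 + His-Eya2 (5X stock: 250/500 nM); Tris pH 8.0, 300 mM NaCl, 0.05% BSA, 0.02% Tween 20; GSH donor/Ni acceptor beads; 1 h 37 °C dark; AlphaScreen readout.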
# PINK1 modulator: PINK1 expression modulation; PINK1 immunofluorescence, high-content cytometry, 24 h; Potency, µM (titrated, usually from 76.6 µM), for inactives: top-dose activation (PINK1 increase), most hits filed as activators; actives 0.2% (n = 410,000); active = well fitted activation curve with a large enough effect; inconclusive = small, poorly fitted or top-dose-only effect; inactive = flat fitted curve, though single readings scatter; cell line not stated here;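 note: potency is the fitted concentration of half-maximal effect; % of control where 0% means no effect; nearly all actives have a fitted effect of over 65% in size; a mitochondrial uncoupler was the plate control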
#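 Compound titrations (5 concentrations, 24 h) on a stable cell line; DMSO and CCCP controls. Endpoint: fixed-cell PINK1 immunofluorescence with mitochondrial, cell and nuclear markers, scanned by microplate cytometer.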
# Active calls of the source: *; u = inconclusive; x = not tested or not shown; & = joins results of further samples; [ ] = dose if it differs, or a comment.
1. Cc1ccc(C(=O)Nc2nc(C(C)(C)C)cs2)s1
2. O=C(CSc1nc(N2CCOCC2)nc(N2CCOCC2)n1)Nc1ccc(Cl)cc1Cl
3. C#CCOCCOCCOCCNc1nc(N2CCN(C(=O)CCCCCCCCCCNC(=O)[C@H](CCCCN)n3cc(C[C@@H](C)CC)nn3)CC2)nc(N2CCN(C(=O)CCCCCCCCCCNC(=O)[C@H](CCCN=C(N)N)n3cc(C[C@@H](C)CC)nn3)CC2)n1
4. O=C(Nc1ccc(Cl)cc1)N(Cc1cccnc1)Cc1ccco1
5. Cc1nnc(C)n1/N=C/c1cc2ccccc2nc1Cl
6. CC1(C)CNC(=O)c2sc(NC(=O)CN3CCOCC3)nc2C1
entry no.,1,2,3,4,5,6
D2 PAM,-11,-7,-7,-11,-5,-8
TRPV1 PAM,-22,u,-1,-6,-2,4
D2 ag,-2.4,-5.4,0.9,-0.5,-1.2,-0.4
CtBP-E1A blk,-3,-1,-27,3,7,3
Sfp inh,15%,-20%,x,1%,14%,-1%
Six1-Eya2 blk,11,-1,-5,1,-24,-1
PINK1 modulator,11%,10%,-0.5%,x,2.3%,1.0%

7. CC(C)C#Cc1ccc2c(c1)O[C@@H](CN(C)S(=O)(=O)c1cn(C)cn1)[C@@H](C)CN([C@H](C)CO)S2(=O)=O
8. COc1ccc(NS(=O)(=O)c2cc(NC(=O)/C=C/c3cc(OC)ccc3OC)ccc2N2CCCCC2)cc1
9. CCCCC1=CC2=C(c3ccco3)C(=O)C(C)(OC(=O)c3ccc(OC)cc3)C(=O)C2=CN1Cc1ccco1 (stereo not drawn)
10. Cc1nc(CS(=O)(=O)c2ccc(Cl)cc2)sc1C(=O)O
11. CCc1ccc(C(O)c2ncc(-c3ccc(C)cc3)[nH]2)cc1 (stereo not drawn)
12. CC(C)(C)N(CC(=O)NC1CCCCC1)C(=O)CS(=O)CC(=O)Nc1ccc(F)cc1 (stereo not drawn)
entry no.,7,8,9,10,11,12
D2 PAM,-2,-6,-4,-3,-8,1
TRPV1 PAM,x,-20,22,10,x,-3
D2 ag,-11,2.1,0.4,-3.3,-3.0,-20
CtBP-E1A blk,-1,10,-24,-9,-11,-1
Sfp inh,x,26%,45µM*,18%,x,12%
Six1-Eya2 blk,1,-4,-28,-2,-2,6
PINK1 modulator,0.9%,1.8%,6.8%,0.2%,2.0%,3.8%

13. CCCCN1C(=O)CCC(C(=O)O)C1c1ccccc1 (stereo not drawn)
14. COc1cc2c(OC(C)=O)c3c(c(-c4ccc5c(c4)OCO5)c2cc1OC)C(=O)OC3
15. CN1CCN(NC(=O)Nc2cccc(F)c2)CC1
16. COCCCNCCCOc1ccc(Cl)cc1Br
17. CCOC(=O)C1(Cc2ccccc2C)CCCN(Cc2cn(C)nc2C)C1 (stereo not drawn)
18. COc1ccc(C)cc1NC(=O)CN1C(=O)c2ccccc2S1(=O)=O
entry no.,13,14,15,16,17,18
D2 PAM,-9,2,-8,-46,-18,-7
TRPV1 PAM,29,-1,-12,-4,2,-5
D2 ag,-2.3,1.2,-4.0,-0.9,-2.2,-5.7
CtBP-E1A blk,-5,0,-3,-12,2,-2
Sfp inh,7%,-11%,17%,-12%,12%,1%
Six1-Eya2 blk,9,-5,6,-1,0,-5
PINK1 modulator,0.0%,0.9%&2.8%,-0.9%,x,-0.7%,3.2%

# Complete entries from above. Order of screens: D2 PAM | TRPV1 PAM | D2 ag | CtBP-E1A blk | Sfp inh | Six1-Eya2 blk | PINK1 modulator
# Cc1ccc(C(=O)Nc2nc(C(C)(C)C)cs2)s1 is entered as -11 | -22 | -2.4 | -3 | 15% | 11 | 11%
# CC(C)(C)N(CC(=O)NC1CCCCC1)C(=O)CS(=O)CC(=O)Nc1ccc(F)cc1 (stereo not drawn) is entered as 1 | -3 | -20 | -1 | 12% | 6 | 3.8%
# Cc1nc(CS(=O)(=O)c2ccc(Cl)cc2)sc1C(=O)O is entered as -3 | 10 | -3.3 | -9 | 18% | -2 | 0.2%
# CC1(C)CNC(=O)c2sc(NC(=O)CN3CCOCC3)nc2C1 is entered as -8 | 4 | -0.4 | 3 | -1% | -1 | 1.0%
# CCCCN1C(=O)CCC(C(=O)O)C1c1ccccc1 (stereo not drawn) is entered as -9 | 29 | -2.3 | -5 | 7% | 9 | 0.0%

# Remaining list, next part:
19. O=C(NCc1cccc(F)c1)c1ccc2nc(N3CCOCC3)sc2c1
20. O=C(Nc1ccccc1)NC1CS(=O)(=O)CC1O (stereo not drawn)
21. COc1ccc(/C=C2\C(=O)NC(=O)c3ccccc32)cc1OC
22. Cn1ncc(Cl)c1C(=O)N1CCN(c2ccc(Cl)c(Cl)c2)CC1
23. O=[N+]([O-])c1ccccc1S(=O)(=O)Nc1cccc2cccnc12
24. Cc1ccc(C(=O)NNC(=O)Cc2nc3nc(C)cc(C)n3n2)cc1
entry no.,19,20,21,22,23,24
D2 PAM,-7,13,-23,-11,-8,-7
TRPV1 PAM,-24,-12,x,-14,3&10,1
D2 ag,-3.8,-2.1,-1.5,0.8,1.9,-0.8
CtBP-E1A blk,-1,11,-5,0,-79*,x
Sfp inh,11%,-2%,x,-8%,11%&0%,-12%
Six1-Eya2 blk,1,1,16,-9,-92*,6
PINK1 modulator,3.9%,34%[38.3 µM],0.2%,0.9%,4.4%&2.7%&8.8%,-0.8%

25. O=C1CC(N2CCN(S(=O)(=O)c3ccccc3)CC2)C(=O)N1c1ccccc1 (stereo not drawn)
26. Cc1oc(-c2cc(F)ccc2F)nc1CN1CCC(C(=O)N2CCOCC2)CC1
27. CC1c2cccn2CCN1S(=O)(=O)c1ccccc1 (stereo not drawn)
28. COC(=O)[C@H]1C2CCC(C(=O)OC)(CC2)[C@H]1C(=O)OC
29. CCN(CC(=O)NC1CC1)S(=O)(=O)c1ccccc1
30. COc1cc2c(cc1OC)CN(C(=O)c1ccc(-c3ccccc3)cc1)CC2
entry no.,25,26,27,28,29,30
D2 PAM,-6,-27,-2,-4,-4,3
TRPV1 PAM,-11,11,-14,7,-10,-1
D2 ag,-1.1,-7.2,3.5,-3.7,-2.2,1.1
CtBP-E1A blk,-1,7,x,-12,6,x
Sfp inh,0%,15%,x,9%,12%,-14%
Six1-Eya2 blk,-2,1,-10,4,0,-15
PINK1 modulator,-0.2%,4.1%,2.6%,-3.3%,0.7%,1.0%

31. COc1cc2ccccc2cc1C(=O)N/N=C/c1cccs1
32. Cc1ccc([N+](=O)[O-])c(C(=O)N/N=C/c2cccnc2)c1
33. CN(C)C(=O)c1cc(F)ccc1Sc1cc(Cl)ccc1Cl
34. O=C(O)Cc1ccc(Nc2cnn(C34CC5CC(CC(CC(=O)O)(C5)C3)C4)c(=O)c2Cl)cc1
35. CC(C)c1cc(C(=O)NCCc2ccccc2)no1
36. CCOC(=O)c1c(-c2ccc(C)cc2)csc1/N=C/N(C)C
entry no.,31,32,33,34,35,36
D2 PAM,-39,-3,3,-4,-13,-6
TRPV1 PAM,x,-28,-5,1,-4,-10
D2 ag,-3.0,2.3,-3.6,-2.0,-4.3,-0.7
CtBP-E1A blk,-7,3,4,6,-13,x
Sfp inh,x,8%,10%,17%,6%,3%
Six1-Eya2 blk,3,-6,-1,17,5,3
PINK1 modulator,4.8%,0.5%,1.3%,-0.9%,0.4%,-0.3%

37. CCOC(=O)CNC(=O)COc1coc(CN2CCN(c3ccccc3)CC2)cc1=O
38. CC1CCc2c(C(=O)NCc3cccnc3)csc2C1 (stereo not drawn)
39. CC(C)Cc1nnc(NC(=O)C2CSC3(C)CCC(=O)N23)s1 (stereo not drawn)
40. COC(=O)[C@@H](NC(=O)Nc1ccc(S(N)(=O)=O)cc1)C(C)C
41. CCOC(=O)CSc1nnc(CNC(=O)c2ccc([N+](=O)[O-])cc2)n1C
42. CCc1nc2ccccc2c(=O)n1NCCc1ccccc1
entry no.,37,38,39,40,41,42
D2 PAM,-2,-2,-1,-9,-17,-2
TRPV1 PAM,-17,14,-13,-4,-9,-24
D2 ag,-8.1,0.9,4.3,-4.2,-1.2,-5.3
CtBP-E1A blk,-2,x,4,4,-3,7
Sfp inh,12%,1%,x,-9%,20%,-5%
Six1-Eya2 blk,1,7,7,2,-3,7
PINK1 modulator,-1.2%,0.2%,2.9%,6.5%,0.9%,0.0%

43. Cc1ccc(CNc2oc(C)nc2C#N)cc1
44. COc1ccc2oc(C(=O)NCCC(C)C)c(C)c2c1
45. CC(C)CC1(C(=O)NCc2cc(F)cc(C(F)(F)F)c2)C=CCN1C(=O)c1ccccc1 (stereo not drawn)
46. Cc1cccnc1NC(=O)c1ccc(OCc2c(C)noc2C)cc1
47. CCCCc1ccc(NC(=O)CN2C(=O)C3CCCCC3C2=O)cc1 (stereo not drawn)
48. C=CCNC(=S)NNC(=O)C(CCC(C)C)CC(C)(C)O (stereo not drawn)
entry no.,43,44,45,46,47,48
D2 PAM,6,-9,-63,-3,-14,2
TRPV1 PAM,5,4,-32,-4,-9,-4
D2 ag,0.2,-1.1,-2.5,-2.6,-0.4,-1.0
CtBP-E1A blk,0,13,-2,6,-1,4
Sfp inh,11%,9%,11%,14%,x,u
Six1-Eya2 blk,-1,23,0,1,5,-1
PINK1 modulator,-1.1%,2.7%,4.8%,-0.1%,-0.6%,-1.7%

# By substructure: the entries above containing a tert-butyl group.
1. Cc1ccc(C(=O)Nc2nc(C(C)(C)C)cs2)s1
12. CC(C)(C)N(CC(=O)NC1CCCCC1)C(=O)CS(=O)CC(=O)Nc1ccc(F)cc1 (stereo not drawn)
entry no.,1,12
D2 PAM,-11,1
TRPV1 PAM,-22,-3
D2 ag,-2.4,-20
CtBP-E1A blk,-3,-1
Sfp inh,15%,12%
Six1-Eya2 blk,11,6
PINK1 modulator,11%,3.8%

# Following part:
49. Cc1cc(-n2c(C)cc(C(=O)CN3C(=O)NC4(CCCCC4)C3=O)c2C)no1
50. Brc1ccc(-c2csc(/N=C/N3CCOCC3)n2)cc1
51. O=C(N[C@@H](Cc1ccccc1)C(=O)OCc1ccccc1)c1nc[nH]c1C(=O)NC1CCNCC1
52. CCOCCCNC(=S)N1CCCN(c2nc3cc(C)cc(C)c3cc2C#N)CC1
entry no.,49,50,51,52
D2 PAM,-12,-5,-22,-9
TRPV1 PAM,10,1,2,1
D2 ag,-2.3,-3.1,-3.7,-3.1
CtBP-E1A blk,12,20,-7,-12
Sfp inh,6%,6%,x,-4%
Six1-Eya2 blk,-11,5,-8,22
PINK1 modulator,3.4%,0.5%,1.7%,-0.3%
